PABP FP inh – PABP poly(A) RNA binding inhibitors, primary screen, biochemical, fluorescence polarization, uHTS | hit rate 1% among 290,000 | inhibition, % at 35 µM;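 active means 50% or more with normal probe brightness, or confirmed in later tests; inconclusive means above 50% with abnormal brightness, or retests that disagree; inactive means below 50% or failed in later tests; about a fifth of its hits are not listed in these tables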;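 further: calls also rest on retests at 20 µM and on dose response follow-up; controls were probe without protein and protein plus probe with vehicle; some compounds called inactive have numbers as strong as hits; many hits fall short of the cut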
Target sequence (P11940 whole entry, looked up): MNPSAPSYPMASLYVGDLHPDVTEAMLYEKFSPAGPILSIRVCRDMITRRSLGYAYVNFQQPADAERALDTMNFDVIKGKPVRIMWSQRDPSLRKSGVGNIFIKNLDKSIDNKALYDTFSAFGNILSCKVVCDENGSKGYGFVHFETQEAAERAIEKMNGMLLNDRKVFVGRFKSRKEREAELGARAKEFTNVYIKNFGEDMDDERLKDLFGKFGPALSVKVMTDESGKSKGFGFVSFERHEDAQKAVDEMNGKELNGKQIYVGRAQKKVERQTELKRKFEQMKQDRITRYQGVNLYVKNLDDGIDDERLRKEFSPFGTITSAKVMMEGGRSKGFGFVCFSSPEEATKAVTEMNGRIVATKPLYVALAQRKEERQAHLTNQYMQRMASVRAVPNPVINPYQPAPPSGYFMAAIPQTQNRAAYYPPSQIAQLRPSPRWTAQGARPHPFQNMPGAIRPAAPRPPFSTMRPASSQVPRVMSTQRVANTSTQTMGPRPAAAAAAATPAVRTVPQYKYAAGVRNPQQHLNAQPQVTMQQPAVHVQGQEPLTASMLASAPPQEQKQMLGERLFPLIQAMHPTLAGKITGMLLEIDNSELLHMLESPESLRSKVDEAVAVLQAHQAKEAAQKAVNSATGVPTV
CSC inhib – cancer stem cell viability inhibitors, primary screen, luminescence; hit rate 1.1% among 300,000; cancer stem cell-like cells viability; inhibition, % at 7.5 µM;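 active means mean at 75% or more and at least half the replicates too; inconclusive means mean and replicates disagree; tested in HMLE shEcad cells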;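 further: 0% = median of negative and 100% = median of positive control wells; the first replicate is given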
eIF4H FP inh – human eIF4H binding inhibitors, primary screen, translation initiation inhibitor project, biochemical, uHTS, fluorescence polarization; eIF4H fluorescence polarization binding assay; inhibition, % at 35 µM; hit rate 0.94% among 290,000;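 active means 50% or more with normal probe brightness, or confirmed in later tests; inconclusive means above 50% with abnormal brightness, or retests that disagree; inactive means below 50% or failed in later tests; about a fifth of its hits are not listed in these tables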;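 further: calls also rest on retests at 20 µM and on dose response follow-up; 0% = protein and probe with vehicle and 100% = probe without protein; strong numbers were not always called active; many hits fall short of the cut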
MT1-MMP act inh – blockers of MT1-MMP proenzyme processing, primary screen, HT1080 RFP-PRO-GFP cells, GFP/RFP fluorescence; GFP/RFP ratio fluorescence, overnight; percent of plate control window, DMSO zero; Matrix metalloproteinase-14 (Homo sapiens), P50281; hit rate 0.061% among 360,000; GFP/RFP ratio change, % at 20 µM;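 active means GFP/RFP ratio change of at least 30% with cell ATP level not reduced by more than half and red fluorescence within 50% of control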; further: strong numbers were not always called active
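Test system: HT1080 RFP-PRO-GFP cells; Benchmarks: DMSO and RFP-L50D-GFP cell wells; Timing: cells overnight before dosing, compound overnight, 37 °C, 5% CO2; Compound: one 20 µM compound dose with 1% DMSO; Read-out: GFP/RFP fluorescence ratio.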
Rce1 inh – yeast Rce1p protease inhibitors, primary screen, biochemical, fluorescence, cell-free homogeneous. CAAX prenyl protease 2 (Saccharomyces cerevisiae (strain ATCC 204508 / S288c)), Q03530. hit rate 0.27% among 290,000. AID 2563, 2010. calls only. yeast membranes, quenched prenylated peptide cleavage fluorescence;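 active means fall in fluorescence gain of 50% or more versus controls, with final raw signal at or below 3038400; inconclusive means same 50% fall but final raw signal above 3038400; inactive means fall in fluorescence gain under 50%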;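 further: plate controls were neutral control wells for no effect and wells lacking membranes for full effect; tested at 10 µM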
Yeast UUG start – modulators of yeast start codon fidelity, primary screen, whole organism, S. cerevisiae, single point, plate reader. S. cerevisiae UUG-firefly luciferase reporter, luminescence/redox ratio. activity score, % at 18.7 µM. AID 602363, 2012. hit rate 0.13% among 350,000;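 active means replicate mean at a twofold rise or more, about +100% in these data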;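 further: firefly luciferase made from a UUG start codon reports start codon fidelity; reporter light over untreated wells divided by growth signal over untreated wells; some hits fall short of that in this replicate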
Env fusion inh – inhibitors of HIV-1 Env-driven cell-cell fusion, primary screen, HeLa-JRFL effector, CEM21 target cells, luciferase. inhibition, % at 12.3 µM. hit rate 1.1% among 360,000;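 active means mean replicate inhibition score of at least 50 and every replicate individually at or above 50; inconclusive means only one of the two criteria met; inactive means mean below 50 and not all replicates reaching 50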;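 further: 0% = plate neutral controls and 100% = maraviroc near 300 nM; one replicate is shown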
eIF4H FP inh retest – recorded beside eIF4H FP inh, whose call it bears; inhibition, %; compound at 20 µM; confirmation average;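 mean of two retest wells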
PABP FP inh retest – second read-out of PABP FP inh, no call of its own (marks repeat the call); inhibition, %; compound at 20 µM; confirmation repeats;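 mean of two retest wells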
MT1-MMP act inh RFP – recorded beside MT1-MMP act inh, whose call it bears; RFP signal change, %; measured here: RFP expression control read;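 0 = vehicle wells; hits needed this value within 50% of zero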
* marks the source's active call; other numbers are inactive results; i = inactive; ? = inconclusive; . = not tested or not shown; & = joins results of further samples; ! = not active in a repeat. The list is partial. The share of hits here may be higher or lower than overall.

SMILES	PABP FP inh	CSC inhib	eIF4H FP inh	MT1-MMP act inh	MT1-MMP act inh RFP	Rce1 inh	Yeast UUG start	Env fusion inh	others
COc1ccc(N(C)C(=O)CCS(=O)(=O)c2cccc3nonc23)cc1	3	10	1	-1	-4	i	1	-24
CN(C)C(=O)Nc1ccc(Cl)c(Cl)c1	.	.	.	1	1	.	-21	-2
Nn1c(Nc2ccccc2)nc2ccccc21	-13	-19	-8	3	3	i	-10	.
Cc1cccc2nc(COc3ccc(Cl)c4cccnc34)cn12	-8	0	-9	2	0	i	.	-18
COc1cccc(CN(C)C[C@@H]2OCc3cnnn3CCCC(=O)N([C@@H](C)CO)C[C@H]2C)c1	.	.	.	2	10	.	-6&-6&5	4
CCOC(=O)c1c(C)[nH]c(C(=O)COC(=O)c2ccncc2)c1C	3	-17	-2	-1	0	.	1	.
CCN=C1SC(CC(=O)Nc2ccc3c(c2)OCO3)C(=O)N1CC (stereo unspecified)	2	-8	-3	-1	2	i	.	20
Cc1ccc(N(C(=O)c2csnn2)C(C(=O)NC2CCCCC2)c2ccccn2)cc1C (stereo unspecified)	-5	-6	-5	0	4	i	1	27
CC1CCN(C(=O)C2CCC(CNS(=O)(=O)c3cccc4cccnc34)CC2)CC1 (stereo unspecified)	-3	11	5	-3	-7	i	-11	-9
CN1CCCNc2nc3ccccc3nc21	?	-1	?	-19	7	i	-23	-4
Clc1ccccc1/C=N/NC1=Nc2cccc3cccc1c23	-7	1	?	-70	2	i	.	-131
O=c1[nH]ncn1-c1ccccc1	5	-12	30	-1	3	i	-11	12
CN1c2ccc(Cl)cc2C(=O)NC1C1CC=CCC1 (stereo unspecified)	11	-5	-2	-3	-3	i	4	-73
O=C(Nc1nncs1)Oc1ccccc1	6	-11	4	4	10	i	-16	-72
Cc1ncc([N+](=O)[O-])n1CCOC(=O)c1ccc(Br)cc1	-7	-10	3	0	-3	i	.	-2
CC(C)(C)c1ccc(C(=O)Nc2ccc(S(N)(=O)=O)cc2)cc1	15*	29	62*	3	-2	i	-12	-9	eIF4H FP inh retest=76*;PABP FP inh retest=69*
CCOC(=O)CCN(C(=S)Nc1ccccc1)C1CCCCC1	.	.	.	-2	-5	.	-31	-16
COc1cc(OC)cc(C(=O)N[C@H](C(=O)NCCc2ccc(S(N)(=O)=O)cc2)C(C)C)c1	11	.	-3	-8	-2	i	-10	-6
C(#CCN1CCOCC1)COC(c1ccccc1)c1ccccc1	-8	-15	4	2	-1	i	-19	.
C/C(=N\NC(=O)c1nnn(-c2nonc2N)c1CSc1ccccc1)c1ccc2c(c1)OCO2	-5	.	0	2	3	i	-27	13
CC(NC(=O)NC(=O)c1ccc(F)cc1)C1CC1 (stereo unspecified)	.	1	.	-1	0	.	-10	-45
CC(NC(=O)N(Cc1ccccc1)Cc1ccc2c(c1)OCO2)(C(F)(F)F)C(F)(F)F	-9	-7	-6	-2	6	i	-16	15
C[C@@H]1COC(=O)[C@H](Cc2ccc(F)cc2)C/C=C\C[C@@H](CC(=O)NCCO)C(=O)N1	.	0	.	1	-2	.	-12	-30
Cc1nc2ccccc2cc1C(=O)NCc1ccccc1	.	-11	.	3	-14	i	-18	-8
CC1Cc2nc(SCC(=O)NCc3ccco3)n(-c3ccccc3)c(=O)c2S1 (stereo unspecified)	-14	-9	8	-6	7	i	16	-85

Remaining list, next part
SMILES	PABP FP inh	CSC inhib	eIF4H FP inh	MT1-MMP act inh	MT1-MMP act inh RFP	Rce1 inh	Yeast UUG start	Env fusion inh	others
Cc1cc2sc(C(=O)O)c(C)c2s1	-3	-5	3	-2	1	i	-22	.
COc1ccc(/C=N/n2cc(-c3ccccc3)nc2N)cc1	20	9	6	17	7	i	-22	.
c1ccc2[nH]c(SCC3CCCCO3)nc2c1 (stereo unspecified)	8	-14	-9	2	0	i	.	-33
CCc1ccc(C(=O)/C=C/NCc2ccc(F)cc2)cc1	-1	-7	0	-16	-4	i	-1	3
CCn1nc(C)c(CN2CCc3c([nH]c4ccccc34)C2c2ccc(F)c(OC)c2)c1C (stereo unspecified)	11	0	2	.	.	i	.	-8
CCOc1ccc(NS(=O)(=O)c2ccc(C)c(C(=O)NCCCn3ccnc3)c2)cc1	14	19	-8	0	2	i	.	1
CCCCNc1ccc(C(CC(N)=O)NC(=O)Cc2cccc3ccccc23)cc1[N+](=O)[O-] (stereo unspecified)	-14	-3	-3	12	1	i	-2	-47
Cc1ccc(S(=O)(=O)Nc2cccnc2)c(C)c1C	2	-10	-9	1	-4	i	-4	-9
CC(C(=O)NCC1CCCO1)N(C(=O)c1snc(C(N)=O)c1N)c1cccc(F)c1 (stereo unspecified)	0	.	-8	8	7	i	-7	-42
O=C(NCC(c1ccc(F)cc1)N1CCOCC1)c1ccccc1F (stereo unspecified)	2	-20	-2	2	3	i	.	-19
O=C(CN(Cc1ccc(F)cc1)C(=O)c1csnn1)NCc1ccc2c(c1)OCO2	1	6	-12	1	0	i	8	-1
Cn1c(=O)c2c(nc3n2CCCN3CCc2ccccc2)n(C)c1=O	8	15	-12	-4	-1	i	-13	17
COc1ccc(CN(C)C(=O)CCCNC(=O)c2ccc(Cl)cc2)cc1	18	-6	-6	1	0	.	-3	10
Cc1oc(-c2ccc(Cl)cc2)nc1CSCC(=O)NC1CCN(Cc2ccccc2)CC1	.	-4	.	-5	-28	i	-16	12
CC(=O)Oc1cc2c3c(c1)/C(=C1/SC(=S)NC1=O)C(=O)N3C(C)(C)C=C2C	24	16	27	9	-14	i	.	10
O=C(COc1ccc(Cl)cc1)Nc1cc(S(=O)(=O)N2CCCCC2)ccc1N1CCCCC1	-2	24	8	-8	-14	i	-17	6
COc1ccccc1NC(=O)COc1ccc(C(=O)OCC(=O)N2CCCC2=O)cc1OC	4	-4	-6	-17	-6	i	6	-9
c1c2c(cc3sc(N4CCCCC4)nc13)OCO2	4	28	2	-1	3	i	-53	-280
COc1ccc2[nH]c(C(=O)N3CCN(C)CC3)c(C)c2c1	0	-3	0	0	0	i	-2	-23
COc1ccc(CCNC(=O)c2cc3c(=O)n4ccccc4nc3n(C3CCCCC3)c2=N)cc1	-18	-12	-9	-1	-6	i	9	26
COC(=O)c1cc(S(=O)(=O)NCCN2CCN(c3ccccc3F)CC2)c[nH]1	-6	-2	-2	4	2	i	-3	1
O=C(N/C(=C/c1cccs1)C(=O)N1CCOCC1)c1ccco1	18	-14	-6	-3	0	i	.	17
Cc1csc(SCC(=O)Nc2sccc2C#N)n1	-15	-8	32	-4	2	i	.	-3
O=C1c2ccccc2C(Nc2ccc(F)c(Cl)c2)N1c1ccccn1 (stereo unspecified)	5	7	-6	2	-5	i	-16	-7
Cc1cccc(CS(=O)(=O)Cc2ccc(C(=O)NCc3cccs3)o2)c1	0	0	1	-1	-3	i	-14	-13

Continuation.
SMILES	PABP FP inh	CSC inhib	eIF4H FP inh	MT1-MMP act inh	MT1-MMP act inh RFP	Rce1 inh	Yeast UUG start	Env fusion inh	others
O=C(CN1CCN(Cc2ccccc2)CC1)c1c[nH]c2ccccc12	20	-12	-8	-6	-3	i	-8	-27
O=C(/C=C/c1ccc([N+](=O)[O-])cc1)c1ccco1	7	0	-4	2	-1	i	-11	8
CN(CCC#N)C(=O)COC(=O)c1ccc2c(c1)C(=O)N(C1CCCCC1)C2=O	25	6	-11	-1	-2	i	10	1
O=C(CSc1nnc(-c2ccccc2Cl)o1)Nc1ccc2c(c1)OCCO2	-1	-1	4	7	2	i	5	-233
CCCC(C)NC(=O)C1CCN(S(=O)(=O)c2ccccc2)CC1 (stereo unspecified)	3	1	-2	-2	-1	i	14	.
CCOc1cc(N2CCOCC2)c(OCC)cc1NC(=O)Cc1ccccc1	-10	-5	-8	0	-3	i	5	25
Cc1ccc(C)c(S(=O)(=O)NCc2ccc(C(=O)N3CCOCC3)cc2)c1	7	-7	-2	-3	-1	i	12	5
C=CCn1c(CSc2nc3ccccc3s2)nnc1SCC(=O)NCc1ccccc1	-5	-13	2	4	1	i	-5	.
COc1ccc(CNc2ccc3cn[nH]c3c2)c(OC)c1OC	6	-7	8	-8	0	i	-14	-11
c1ccc(N2CCN(c3cccc(-c4cc5ccccc5s4)n3)CC2)nc1	.	.	.	1	4	.	9	9
O=C(O)Cc1coc2ccc3ccccc3c12	6	2	1	5	3	i	.	-4
CC(=O)NCc1ccc(S(=O)(=O)NC2CCN(Cc3ccccc3)CC2)cc1	-5	-11	-1	.	.	i	.	1
CC1O[C@@H](O[C@H](C)CC[C@@H](C)O)C(O)C[C@H]1O (stereo partly specified)	.	-3	.	2	3	i	-4	23
O=C(Nc1ccc2c(c1)[C@H]1C[C@@H](CC(=O)N3CCOCC3)O[C@@H](CO)[C@H]1O2)C1CCOCC1	.	.	.	8	12	.	-19	18
CCCCN(C(=O)c1cccc(-n2cccc2)c1)c1c(N)n(CCC)c(=O)[nH]c1=O	.	8	.	-2	5	i	-22	-8
CC(C)C1Nc2c(C(=O)O)cccc2C(Nc2ccccc2C(=O)O)C1(C)C (stereo unspecified)	33	-3	16	.	.	i	-5	22
CCCn1c(=O)[nH]c(=O)c2[nH]cnc21	6	-11	-2	-4	2	i	-12	23
Cc1cc(Cl)ccc1OCCCC(=O)NC1CCN(C)CC1	-7	.	-8	-1	1	i	-4	.
CCC(CC)NC(=O)c1n[nH]c(=O)c2ccccc12	7	-10	-4	2	3	i	-19	-20
O=C(NCc1ccco1)C1CCCN1C(=O)Nc1cccc(Cl)c1 (stereo unspecified)	-1	-3	-10	-6	-2	i	.	11
O=S1(=O)NC(=NCc2ccccc2)c2ccccc21	0	11	-4	-6	-1	i	-16	.
CCOC(=O)N1CCN(C(=O)c2cccc(NC(=O)c3ccco3)c2)CC1	-3	0	-8	0	5	i	-8	.
CCCCCCCCCCOC(=O)Cn1c(COc2ccc(OC)cc2)[n+](C)c2ccccc21	24&15	103*!	1&9	2&-8	-32&-36	i	-29&-24	.
Cc1ccc(NC(=O)CN(C)C(=O)CSc2nc(C)cs2)cc1	-1	-2	9	0	-2	.	.	-2
CN(Cc1ccccc1)C(=O)c1ncn2c1c(=O)[nH]c1cccnc12	.	.	.	6	5	.	0	-13
CCOC(=O)C1=C(C)N=c2s/c(=C/c3ccc(OCC(=O)O)cc3)c(=O)n2C1c1cc(OC)c(OC)c(OC)c1 (stereo unspecified)	16	.	4	.	.	i	17	5
CN(C)S(=O)(=O)c1ccc(NC(=O)COC(=O)C2COc3ccccc3O2)cc1 (stereo unspecified)	?	-6	?	2	4	i	3	0

Three entries picked at random from the list so far, as already listed:
SMILES	PABP FP inh	CSC inhib	eIF4H FP inh	MT1-MMP act inh	MT1-MMP act inh RFP	Rce1 inh	Yeast UUG start	Env fusion inh	others
CC1CCN(C(=O)C2CCC(CNS(=O)(=O)c3cccc4cccnc34)CC2)CC1 (stereo unspecified)	-3	11	5	-3	-7	i	-11	-9
Cc1cc(Cl)ccc1OCCCC(=O)NC1CCN(C)CC1	-7	.	-8	-1	1	i	-4	.
c1ccc(N2CCN(c3cccc(-c4cc5ccccc5s4)n3)CC2)nc1	.	.	.	1	4	.	9	9
